LANA-H2A inh = blocks KSHV LANA binding to histone H2A/H2B. 320,000 tested, 0.6% active. inhibition, % (test concentration not listed). cell-free LANA-H2A/H2B peptide, fluorescence polarization; in the data active = inhibition mostly above about 10%, no sharp cut-off; inactive = mostly below about 6.7%;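 note: stock transfer was 7.5 nL into about 10 µL; 0% = median of vehicle wells and 100% = median of positive control wells; one replicate is shown; the record names a cut of 25% in any replicate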
B2AR ag = human beta-2 adrenergic receptor agonism by FAP | response, % (no concentration beside the values) | P07550 | Am2.2-beta2AR cells, FAP receptor internalization, flow cytometry; reference of the scale not given here | 340,000 tested, 0.43% active;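 active = response above a set limit, near 3 SD of response in nonfluorescent compounds, cut at about 42% in these data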;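 note: stock transfer was 100 nL into about 11 µL; a reference agonist was the positive control; negative values mostly stem from fluorescent compounds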
Target sequence (P07550 whole entry, looked up): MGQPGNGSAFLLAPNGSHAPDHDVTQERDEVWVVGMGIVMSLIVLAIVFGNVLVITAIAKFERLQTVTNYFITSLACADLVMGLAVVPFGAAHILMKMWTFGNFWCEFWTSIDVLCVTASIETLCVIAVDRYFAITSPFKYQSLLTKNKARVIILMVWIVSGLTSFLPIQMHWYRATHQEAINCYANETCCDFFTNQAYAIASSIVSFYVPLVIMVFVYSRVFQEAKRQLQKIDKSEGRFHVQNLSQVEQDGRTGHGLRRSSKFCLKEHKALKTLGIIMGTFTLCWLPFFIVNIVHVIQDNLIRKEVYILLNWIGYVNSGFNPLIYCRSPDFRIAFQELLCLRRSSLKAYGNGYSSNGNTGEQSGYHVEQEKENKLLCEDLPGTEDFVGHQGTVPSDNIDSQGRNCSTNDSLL
ALR inh = blocks human ALR sulfhydryl oxidase activity; purified ALR, DTT oxidation, H2O2 HRP-luminol luminescence; inhibition, % (concentration not given with the values); 290,000 tested, 3.8% active; AID 485317;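 active = mean and each replicate at 75% or more; inconclusive = only one of the two met; inactive = neither met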;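 note: stock transfer was 7.5 nL into about 7.5 µL; 0% = neutral wells and 100% = wells with inactivated enzyme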
Target sequence (P55789 whole entry, looked up): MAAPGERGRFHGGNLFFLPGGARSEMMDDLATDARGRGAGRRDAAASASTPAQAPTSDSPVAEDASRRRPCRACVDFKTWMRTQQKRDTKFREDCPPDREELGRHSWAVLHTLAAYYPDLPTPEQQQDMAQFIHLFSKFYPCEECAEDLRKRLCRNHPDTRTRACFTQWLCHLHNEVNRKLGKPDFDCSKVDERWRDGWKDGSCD
HNF4A DNA FP = change in binding of human HNF4 alpha to DNA; P41235; 360,000 tested, 0.3% active; AID 1224865; HNF4a-FITC DNA binding, fluorescence polarization, 1 h; activity change, % at 10 µM; in the data active = activity change above about 30%, passing the limit was not always enough;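 note: controls were the assay level and a saturating level of protein; the project sought stronger binding though the title names inhibitors; some compounds called inactive have numbers as strong as hits; positive values seem to mean higher polarization but the record does not say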
Target sequence (P41235 whole entry, looked up): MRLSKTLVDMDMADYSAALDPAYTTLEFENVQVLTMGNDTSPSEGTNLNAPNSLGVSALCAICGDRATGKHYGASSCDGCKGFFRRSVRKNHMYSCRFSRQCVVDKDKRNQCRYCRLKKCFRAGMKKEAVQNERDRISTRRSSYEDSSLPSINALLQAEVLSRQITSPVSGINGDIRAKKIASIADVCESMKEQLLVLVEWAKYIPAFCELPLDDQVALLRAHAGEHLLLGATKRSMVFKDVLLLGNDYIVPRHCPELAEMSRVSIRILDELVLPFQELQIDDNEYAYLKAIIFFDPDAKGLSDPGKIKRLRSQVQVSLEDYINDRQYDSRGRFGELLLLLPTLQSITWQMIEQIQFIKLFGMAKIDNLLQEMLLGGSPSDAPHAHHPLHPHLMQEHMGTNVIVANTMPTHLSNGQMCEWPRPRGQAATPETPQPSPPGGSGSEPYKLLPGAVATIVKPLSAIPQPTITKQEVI
Calb FLC = C. albicans growth modulation with fluconazole. C. albicans CaCi-2 (fluconazole-resistant clinical isolate) + fluconazole, Alamar Blue growth, 48 h. growth inhibition, % (no concentration beside the values). AID 1979. 300,000 tested, 0.57% active;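 active = most replicates above 75%; inconclusive = exactly half above 75%; inactive = most below 75%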;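 note: all wells also contain fluconazole at 8 µg/ml as a sub-toxic cotreatment; 0% = median of DMSO wells and 100% = median of geldanamycin control wells; wells of about 8 µL received 7.5 nL stock; the first replicate is given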
RanGTP-Imp inh = disruptors of Ran-importin-beta complex formation – biochemical, FRET, CFP-Ran, YFP-importin-beta, homogeneous, primary screen | inhibition, % (test concentration not listed) | cell-free CFP-Ran/YFP-importin-beta FRET ratio | 300,000 tested, 1.1% active | AID 2216;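 active = most replicates above 15%; inconclusive = exactly half above 15%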;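 note: 0% = DMSO wells and 100% = Ran loaded with GDP instead of GTP; wells of about 40 µL received 100 nL stock; the first replicate is given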
Vif TR-FRET = HIV-1 Vif–A3G interaction blockers – biochemical, TR-FRET, GST-Vif 1-94, biotin-A3G peptide, dose response retest, primary screen (AID 1117319); TR-FRET GST-Vif / biotin-A3G peptide binding; higher % means a stronger effect; test concentration not given here; strong numbers were not always called active; 260,000 tested, 0.57% active; inhibition, %, or IC50 in µM where a hit was titrated;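 active = above the screen mean plus three standard deviations and confirmed in dose response; inconclusive = results disagree or hit not tested in dose response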;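 note: Vif residues 1-94 fused to GST binding biotinylated APOBEC3G peptide 110-148; 0% = full assay without inhibitor and 100% = GST in place of GST-Vif; retest series ran down from 100 µM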
* hit, by the source's call; ? = inconclusive; . = no result given; & = joins results of further samples.

SMILES	LANA-H2A inh	B2AR ag	ALR inh	HNF4A DNA FP	Calb FLC	RanGTP-Imp inh	Vif TR-FRET
O=C(Cn1nnc(-c2ccc3c(c2)OCO3)n1)NCc1ccccc1	-2.7	-4	-6	-0.1	7	-3.6	-8%
COc1ccc(-n2c(Cc3cccn3C)nnc2SCC(=O)Nc2ccc(C)cc2C)cc1	-3.2	-3	-6	2.6	2	0.1	5%
CCCCn1c(CCC(=O)O)nc2cc(S(=O)(=O)N(CC)CC)ccc21	-0.7	2	-13	8.8	0	4.7	-6%
COc1ccc(N2CC(C(=O)N[C@@H](CC(C)C)C(=O)NC3CCCCC3)CC2=O)cc1 (some centres undefined)	2.9	-9	-1	3.5	?	-2.1	3%
Cc1cc(C(=O)CC#N)c(C)n1CC(F)(F)F	-2.5	4	95*	-0.2	?	2.6	2%
CCCn1c(N)c(C(=O)CSc2n[nH]c(-c3ccccc3F)n2)c(=O)n(C)c1=O	-2.3	6	4	-1.9	.	.	-12%
Cn1cccc1/C=N/NC(=O)CSc1nc2ccccc2n1C	-7.7	-11	.	8.9	0	1.6	-9%
CC(C)CC(=O)N1CCN(Cc2ccc3ccccc3c2)CC1	18	-3	-15	-0.1	1	1.3	.
COc1ccc(-c2noc(-c3cc4ccccc4oc3=O)n2)cc1	3.0	.	-2	.	-2	4.8	-8%
Cc1cnc(C)c(N(C)NC(=S)Nc2ccccc2)n1	-4.3	3	37	0.1	7	-0.1	-4%
CCc1nnc(NC(=O)CSc2nnc(-c3ccco3)n2CCOC)s1	-6.5	-1	-16	1.4	2	-4.3	4%
CC(C)C(NC(=O)c1ccco1)C(=O)NCC(c1ccco1)N(C)C (centres undefined)	2.2	2	0	3.4	1	3.8	24%
Cc1ccc2c(c1)cc(C(=O)NCc1ccccc1)n2C	1.2	1	-4	0.2	-29	1.7	-1%
COc1cc(-c2nnn(CC(=O)NCc3ccccc3)n2)cc(OC)c1OC	3.8	1	3	-2.3	17	-0.4	.
COC(=O)c1c(NC(=O)C(=O)NCCCN2CCOCC2)sc2c1CCCC2	-1.5	7	2	-3.3	0	0.1	.
Cc1cc(C)cc(N(CC(=O)NCc2ccccc2Cl)S(=O)(=O)c2c(C)[nH]c(=O)[nH]c2=O)c1	0.9	-1	-4	3.8	24	-5.8	.
O=C(Nc1nc(C2C3CC4CC(C3)CC2C4)cs1)c1cc2cc([N+](=O)[O-])ccc2oc1=O (centres undefined)	-2.0	-2	.	-1.7	-7	4.6	3%
Cc1cc(C)cc(Oc2ccc(NC(=O)C3CC=CCC3C(=O)O)cc2)c1 (centres undefined)	5.7	6	48	-0.4	28	.	-7%
CCOC(=O)C1(C(=O)OCC)NC(=O)CC1C(C)C (centres undefined)	.	-2	.	-1.3	.	.	0%
CCOC(=O)C1(Cc2cccc(OC)c2)CCN(Cc2cccc3cnccc23)CC1	-2.0	7	-28	2.5	-11	86*	.
CC[C@H](C)[C@H](NS(=O)(=O)c1ccc(C)cc1)C(=O)N1CCC(C(=O)N[C@H](C(=O)O)C(C)C)CC1	-2.3	10	.	-0.5	24	0.9	23%&9%
CC(=O)O[C@H](COc1c2ccoc2cc2oc(=O)ccc12)C(C)(C)O	-2.2	1	-3	1.4	.	.	.
CC(C)(C)NC(=O)NCCc1ccccc1	1.4	-12	-5	6.4	-1	-6.0	7%
Cc1ccc(/C=N/NC(=O)c2nnn(-c3nonc3N)c2CSc2ccccc2)s1	-2.3	-3	-3	6.2	-12	3.7	.
CN(C)CCOC(=O)CCc1ccccc1	0.4	9	-6	2.3	0	1.3	25%

Single records (already shown). Order of values: LANA-H2A inh	B2AR ag	ALR inh	HNF4A DNA FP	Calb FLC	RanGTP-Imp inh	Vif TR-FRET
Entry for `CN(C)CCOC(=O)CCc1ccccc1` : 0.4	9	-6	2.3	0	1.3	25%
Entry for `COc1cc(-c2nnn(CC(=O)NCc3ccccc3)n2)cc(OC)c1OC` : 3.8	1	3	-2.3	17	-0.4	.
Entry for `CC(C)CC(=O)N1CCN(Cc2ccc3ccccc3c2)CC1` : 18	-3	-15	-0.1	1	1.3	.

Further structures follow.
SMILES	LANA-H2A inh	B2AR ag	ALR inh	HNF4A DNA FP	Calb FLC	RanGTP-Imp inh	Vif TR-FRET
Cc1nnc(SCC(=O)Nc2c(Cl)cccc2Cl)[nH]c1=O	1.3	1	17	2.8	-6	8.0	13%
Cc1ccc(-c2nn(CC(=O)NCC3CCCO3)c(=O)c3ccccc23)cc1 (centres undefined)	3.6	-5	-16	-0.2	2	4.2	-1%
N=C1N(c2ccccc2)C(=S)C(=Nc2ccccc2)N1c1ccccc1	.	3	.	1.5	.	.	-3%
Cc1ccccc1-c1nnc(-c2cccs2)o1	-2.2	-8	0	-2.4	-3	-3.8	-7%
O=C(COC(=O)/C=C/c1ccc(C(F)(F)F)cc1)NCC1CCCO1 (centres undefined)	4.9	-3	.	2.4	1	-0.2	-1%
CC(=O)NC(CC(=O)OCC(=O)Nc1cc(S(=O)(=O)N2CCCCC2)ccc1C)c1ccccc1 (centres undefined)	3.0	2	-27	1.5	.	.	.
CCCN1CCN(C(=O)Cn2cnc3sc(C)c(S(=O)(=O)N4CCC(C)CC4)c3c2=O)CC1	-2.3	2	-2	0.7	-7	-1.1	.
Cc1ccc2oc(=O)cc(/C=C/c3ccccc3)c2c1	-2.7	-16	2	-3.0	15	-1.9	-2%
Cc1cc(C)cc(C(=O)N2CCN=C2SCc2ccc([N+](=O)[O-])cc2)c1	4.0	0	.	-3.5	1	2.0	.
O=C(CN1CCOCC1)NNC(=O)c1ccc([N+](=O)[O-])cc1	-1.1	0	-8	-5.9	0	0.2	-2%
O=C(CN1C(=O)N/C(=C\c2ccccc2OCc2ccc(C(=O)O)cc2)C1=O)Nc1ccc(F)cc1	1.5	5	.	1.5	-3	2.6	2%
C=CCOc1c(Br)cc(/C=N/n2c(CC)n[nH]c2=S)cc1Br	11	-4	2	0.7	25	-0.5	-8%
COc1ccc(C(C)=O)cc1COC(=O)[C@H](Cc1ccccc1)NC(=O)c1ccco1	2.2	6	39	4.4	.	.	-7%
C=CCOc1ccc(/C=C\c2nc(O)c([N+](=O)[O-])c(=O)[nH]2)cc1OCC	2.7	0	97*	-2.5	0	-1.7	2%
C(C#CCN1CCOCC1)#CCN1CCOCC1	.	0	.	0.1	.	.	6%
O=C(CCS(=O)(=O)c1ccc(Cl)cc1)N1CCN(S(=O)(=O)c2cccs2)CC1	-1.5	1	-12	-0.5	-6	2.3	20%
COc1ccc(NC(=O)CCc2nnc3ccc(N4CCC(C)CC4)nn23)cc1	-4.7	-20	-11	5.2	0	-1.7	.
O=C(NCCCc1ccncc1)C1CCC(=O)N(Cc2cccc(F)c2)C1 (centres undefined)	-2.3	6	-3	2.3	11	4.4	.
CC(C)NC(=O)c1onc(CSc2ccc(Cl)cc2)c1C(=O)O	3.6	-4	16	-1.5	-7	2.6	-1%
Cc1[nH]n(-c2ccccc2)c(=O)c1C=NC1CCCCCC1	-4.7	-18	.	-3.0	22	-2.4	-12%
CC1(C)CC(=O)c2cc(C(=O)N3CCCC(C)(C)C3)c(=O)n(-c3ccccc3)c2C1	-5.3	0	0	-1.2	.	2.0	-2%
COc1ccc(C(=O)N[C@H](C(=O)Nc2nc3c(s2)CCCC3)C(C)C)cc1	-1.9	1	-3	1.5	-3	6.0	-5%
O=c1nc(N/N=C/C=C/c2ccccc2)cn[nH]1	-1.1	-5	24	-1.8	?	3.0	.
CN1CCN(C(=O)c2cc(=O)c3cc(Cl)ccc3o2)CC1	3.4	-14	-1	-0.9	-19	-6.9	-7%
O=C(NCCc1ccc(Cl)cc1)c1cccc(N2CCCC2=O)c1	8.0	0	3	-2.7	-1	0.2	.
New compounds follow
SMILES	LANA-H2A inh	B2AR ag	ALR inh	HNF4A DNA FP	Calb FLC	RanGTP-Imp inh	Vif TR-FRET
COc1ccc(S(=O)(=O)N2CCCCC2)cc1NC(=O)Cc1ccsc1	2.5	0	-3	3.3	.	.	-13%
Cc1ccc(NC(=O)CSc2nnc(-c3ccc(S(=O)(=O)N4CCCC4)cc3)o2)cc1C	.	4	.	2.8	.	.	-4%
CC(=O)Nc1ccc(NC(=O)C(C)OC(=O)CCc2nc3ccccc3s2)cc1 (centres undefined)	2.1	-5	1	-3.1	11	-3.1	0%
CCC(Sc1nc2ccc(C)cc2[nH]1)C(=O)O (centres undefined)	8.0	-6	-4	-1.8	5	-1.8	3%
FC(F)(F)c1ccc(C2NCCc3sccc32)cc1 (centres undefined)	-0.1	-7	-1	-0.7	-32	-4.4	-1%
O=C(O)CCC(=O)c1ccc2c(c1)CCCC2	1.7	1	4	-0.2	-2	-0.8	0%
O=C(NCCC1=CCCCC1)c1cccc(S(=O)(=O)N2CCCCC2)c1	-0.5	22	0	-1.5	-11	0.4	3%
Cc1ccc(CN2C(=O)CSC2c2cccnc2)cc1 (centres undefined)	1.5	-5	68	3.5	-4	-1.9	-8%
NS(=O)(=O)c1ccc(N2CCOCC2)c(C(=O)NCc2ccc3c(c2)OCO3)c1	.	-10	.	-1.6	.	.	4%
CCSc1nc2c(sc3ccccc32)c(=O)n1C(C)C	2.4	-2	1	-1.9	13	?	-4%
O=C(NCc1cc(F)cc(C(F)(F)F)c1)C1CCC(=O)N(C2CCCC2)C1 (centres undefined)	-3.1	-7	-51	0.3	-5	4.3	-1%
CC(C(=O)N1CCCc2ccccc21)N1CCN(S(=O)(=O)c2ccccc2F)CC1 (centres undefined)	6.2	5	.	-0.5	2	2.1	12%
N#Cc1c(SCC(=O)Nc2nncs2)sc2c(O)cc(=O)[nH]c12	-1.4	-1	2	-34	7	0.8	.
Cc1cc(C2C(=O)NC(=O)C2=O)c(C)cc1Br (centres undefined)	.	-7	.	-0.4	.	.	0%
CC(C)NC(=O)NC(=O)CSc1nnc(-c2c[nH]c3ccccc23)o1	-6.3	0	30	2.5	-32	-1.2	4%
C=CCn1c(-c2cc3c(s2)CCC(CC)C3)n[nH]c1=S (centres undefined)	-2.8	10	-1	0.6	-10	-1.3	-6%
CN(Cc1ccccc1)C(=O)COC(=O)C1CCN(S(=O)(=O)c2ccc3c(c2)OCCO3)CC1	-2.3	-1	-3	1.6	-1	2.5	-5%
CCC(CC)NC(=O)c1ccc2nc[nH]c2c1	-5.2	-4	.	-3.9	-14	-0.2	-5%
O=C(Nc1ccccc1-c1nnc(SCc2ccc(Cl)cc2)o1)c1ccccc1	0.2	3	14	8.1	10	11	-3%
C=CCOC(=O)C1=C(C)NC(=O)NC1/C=C/c1ccccc1OC (centres undefined)	-16	-4	-6	2.7	-30	-3.6	0%
CC(=O)c1cccc(NC(=O)COc2cc(C)on2)c1	-12	14	-1	3.9	.	.	2%
C=C(C)Cn1c(SCC(=O)N/N=C/c2cccc(O)c2)nc2ccccc2c1=O	-7.3	6	6	0.8	3	1.1	-2%
COC(=O)c1ccccc1NC(=O)c1ccc(COc2ccc3c(c2)CCC3)cc1	-2.3	-13	11	1.8	7	2.9	-15%
C=CCc1cccc(/C=N/NC(=O)c2ccccc2OC)c1O	-2.6	-19	12	5.7	43	39*	.
CS(=O)(=O)N(CC(=O)NC1CC2CCC1C2)c1ccc(Oc2ccccc2)cc1 (centres undefined)	5.1	1	-16	1.1	-24	?	-4%
CC(=O)c1ccc(OC(C)C(=O)Nc2cccc(S(=O)(=O)NCc3ccco3)c2)cc1 (centres undefined)	5.6	1	.	-2.5	.	.	.
NC(=O)CSc1cn(Cc2ccc(F)cc2)c2ccccc12	-5.9	-3	.	1.3	-6	1.0	3%
N#CCC(=O)Nc1ccc(C(=O)OCC(=O)Nc2ccc3ccccc3c2)cc1	-5.7	4	92*	5.4	.	.	.
Cc1cnc(C)c(N2CCN(C(=O)C3CCC(=O)N(CCc4cccc(F)c4)C3)CC2)n1 (centres undefined)	6.9	-4	-4	2.2	-13	-1.5	.
Cc1cc(C(=O)N/N=C/c2cccc(OC(=O)c3cccc(Br)c3)c2)n[nH]1	3.5	3	-10	2.6	-13	.	.

Screening results as filed in PubChem BioAssay.
